Rango-impB inh: inhibitors of Rango-importin beta complex formation; Rango CFP/YFP FRET sensor + importin beta, 45 min; Potency, µM (highest dose often 92.2 µM), inactives show top-dose inhibition of complex formation; 340,000 tested, 0.031% active; AID 540263; active = rising FRET ratio curve, often small or poorly fitted; inconclusive = mostly compound fluorescence or quenching in the first reads; inactive = flat curves in all reads;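 further: potency means the concentration at half of the fitted maximal effect; 0% = DMSO wells and 100% = buffer wells lacking importin beta; nearly all actives have a fitted effect of over 15% in size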
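Inhibition scored from the CFP 486 nm/YFP 530 nm FRET ratio 45 min after adding 0.125 microM importin beta to 50 nM Rango biosensor preincubated 5 min with compound (room temperature, PBS with DTT, Tween-20, BSA). No-importin wells as positive control.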
GLA inh pH 4.5: blocks human alpha-galactosidase A at pH 4.5 | activity change, negative = inhibition, % at 105 µM | purified enzyme, 4-MU-alpha-Gal fluorescence, pH 4.5 | 230,000 tested, under 10 active | P06280; inconclusive = small, poorly fitted or top-dose-only inhibition, or a rising curve; inactive = flat fitted curve, though single readings scatter; no compound was filed as active;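 further: 0% = full activity with enzyme and -100% = basal without enzyme; dose as in the result columns while the protocol names 77 µM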
Target sequence (P06280 whole entry, looked up): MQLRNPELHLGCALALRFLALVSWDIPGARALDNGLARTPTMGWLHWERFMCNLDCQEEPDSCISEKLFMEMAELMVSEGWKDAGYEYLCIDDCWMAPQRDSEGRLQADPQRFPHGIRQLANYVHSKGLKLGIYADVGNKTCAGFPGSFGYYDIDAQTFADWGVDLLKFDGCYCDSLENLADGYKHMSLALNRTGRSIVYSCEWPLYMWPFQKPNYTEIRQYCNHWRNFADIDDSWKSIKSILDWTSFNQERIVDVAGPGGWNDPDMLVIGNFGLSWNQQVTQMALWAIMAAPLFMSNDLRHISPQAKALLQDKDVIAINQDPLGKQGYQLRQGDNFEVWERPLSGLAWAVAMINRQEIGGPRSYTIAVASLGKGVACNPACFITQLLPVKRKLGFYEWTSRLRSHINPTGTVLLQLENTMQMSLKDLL
Rango release inh: inhibition of RanGTP-driven Rango-importin beta dissociation. O95149+P62826. Biochemical FRET Rango-importin beta, RanGTP-induced dissociation. Potency, µM (titrated, usually from 46.1 µM), inactives show top-dose activity change, negative = inhibition. 340,000 tested, 0.071% active; active means falling FRET ratio curve, often poorly fitted, with flat reads before Ran was added; inconclusive means other falling curves, or compound fluorescence or quenching; inactive means flat or rising ratio curve;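 further: potency means the concentration at half of the fitted maximal effect; % of control where 0% means no effect; nearly all actives have a fitted effect of over 45% in size; -100% = wells without RanGTP and RCC1; the record marks most hits as doubtful in a second field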
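Compounds preincubate 5 min with complex of recombinant Rango and importin beta in PBS with 1 mM DTT. Ran (0.6 uM) loaded with 2 mM GTP plus 0.2 uM RCC1 starts dissociation; FRET is recorded 45 min later.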
miR-21 reporter: raises the signal of a miR-21 reporter. HeLa miR-21 FLuc reporter, luciferase, 48 h. 340,000 tested, under 10 active. Potency, µM (titrated, usually from 38.3 µM), inactives show at the top dose reporter change, positive = more light. AID 2288; active = well fitted rising curve with a large enough effect; inconclusive = small, poorly fitted or top-dose-only effect; inactive = no such curve, though single readings can be large or run the other way;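 further: % of control where 0% means no effect; miR-21 action dims this reporter so a rising signal means less miR-21 action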
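Luminescence from a firefly luciferase reporter carrying a miR-21 binding site downstream, stably expressed under a CMV promoter in HeLa cells that make miR-21 endogenously, reports miRNA modulation after 48 h compound exposure up to approximately 40uM final.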
Numbers without * were called inactive; u = inconclusive; x = no result given; & = joins results of further samples. These rows are one share of the data; the hit share may differ from the screen's.

item	canonical_smiles	Rango-impB inh	GLA inh pH 4.5
1	CC(=O)Nc1c(-c2ccccc2)nc2ncccn12	-4.7%	3
2	N#CCCN(Cc1cccnc1)C(=O)Nc1ccc(Cl)c(Cl)c1	2.3%	-4
3	COc1ccc(-c2csc(N(CCCN(C)C)C(=O)c3ccccc3Cl)n2)cc1	-3.6%	x
4	C=CCN(CC=C)S(=O)(=O)c1ccc(F)cc1	-0.1%	-1
5	COc1ccc(Cl)cc1-c1nc(N)nc(NC2CCCCC2)n1	1.5%	0
6	COC(=O)c1ccccc1N=Nc1c(C)[nH][nH]c1=O	4.1%	-5
7	COc1ccc(N2CCn3c2nc2c3c(=O)n(CCN3CCOCC3)c(=O)n2C)cc1	x	-12
8	CC1C2=C(CC(C)(C)CC2=O)NC2=C1C(=O)CC(C)(C)C2	u	u

item	Rango release inh	miR-21 reporter
1	28%	-1%
2	-5%	-9%
3	-16%	x
4	7%	-4%
5	1%	-24%
6	-12%	-5%
7	x	1%
8	u	-8%

Next part.
item	canonical_smiles	Rango-impB inh	GLA inh pH 4.5
9	Cc1[nH]c(=O)c(C#N)c(C)c1CCC(=O)N(C)CC(=O)Nc1ccc(Cl)c(Cl)c1	-1.6%	x
10	Cc1occc1C(=O)NNC(=O)c1ccccc1C(=O)O	-5.7%	3
11	COc1ccc(Oc2nc(C)cc(C)c2S(C)(=O)=O)cc1	u	-1
12	CCOCCCNC(=S)NCCCNc1nc2cc3c(cc2cc1C#N)OCO3	u	29
13	COC(=O)c1cc(NC(=O)c2cc(C(C)(C)C)nn2Cc2ccc(F)cc2)ccc1N1CCOCC1	3.8%	-17
14	CCn1c(COc2cccc(C)c2C)nnc1SCC(=O)N1CCN(c2ccc(OC)cc2)CC1	4.0%	-3
15	Cc1cccn2c(=O)c3cc(C(=O)N4CCCCC4C)sc3nc12 (centres undefined)	-2.4%	x
16	CCCCNC(=O)c1onc(CSc2cc(C)cc(C)c2)c1C(=O)NCCCC	3.8%	x

item	Rango release inh	miR-21 reporter
9	26%	-2%
10	-10%	-63%
11	11%	-8%
12	u	-7%
13	4%	u
14	-13%	2%
15	0%	x
16	25%	x

Retrieved by compound from the list above, 3 records:
item	canonical_smiles	Rango-impB inh	GLA inh pH 4.5
15	Cc1cccn2c(=O)c3cc(C(=O)N4CCCCC4C)sc3nc12 (centres undefined)	-2.4%	x
13	COC(=O)c1cc(NC(=O)c2cc(C(C)(C)C)nn2Cc2ccc(F)cc2)ccc1N1CCOCC1	3.8%	-17
12	CCOCCCNC(=S)NCCCNc1nc2cc3c(cc2cc1C#N)OCO3	u	29

item	Rango release inh	miR-21 reporter
15	0%	x
13	4%	u
12	u	-7%

(cont.)
item	canonical_smiles	Rango-impB inh	GLA inh pH 4.5
17	COc1cc(C(=O)O)nc(OC)n1	1.1%	6
18	Cc1ccc2nccc(C(=O)N3CCCC(Nc4ccc(F)cc4)C3)c2c1 (centres undefined)	-0.2%	x
19	O=C1NCCN1C(=O)c1ccco1	-2.6%	3
20	C/C(=N\NC(=O)c1cc(O)ccc1O)c1cccc(NC(=O)c2ccc(Cl)cc2)c1	2.7%	x
21	Cc1cc(C)n2c(SCC(=O)N(C)C3CCS(=O)(=O)C3)nnc2n1 (centres undefined)	4.3%	1
22	CC(Oc1ccc(Cl)cc1Cl)C(=O)Nc1ccc(S(=O)(=O)Nc2cnc3ccccc3n2)cc1 (centres undefined)	-1.1%	-5
23	O=S(=O)(Nc1ccc2c(c1)OCCO2)c1ccc(Br)s1	-1.8%	3
24	CCOC(=O)C1=NNC2(c3ccc(Cl)cc3)C(=O)N(c3cc(C)cc(C)c3)C(=O)C12 (centres undefined)	-0.8%	-3

item	Rango release inh	miR-21 reporter
17	-5%	-2%
18	11%	-2%
19	-2%	-4%
20	-9%	-26%
21	0%	-3%
22	17%	-26%
23	4%	-3%
24	30%	0%

Going on with the list.
item	canonical_smiles	Rango-impB inh	GLA inh pH 4.5
25	O=C(CCl)Nc1cc(S(=O)(=O)N2CCOCC2)ccc1N1CCOCC1	2.5%	7
26	Cc1cccc(-c2n[nH]c(=S)n2C)c1	1.5%	3
27	Cc1cccc(NC(=O)CCC(=O)N/N=C/c2ccncc2)c1	0.4%	-3
28	Cc1c(C)n(C)c2ccc(C(=O)NCCCN(C)C3CCCCC3)cc12	-2.0%	x
29	C=CCNC(=O)c1cc2c(=O)c3ccccc3oc2nc1C	u	6
30	O=C(NC1CCCN(c2ccc(C(F)(F)F)cn2)C1)c1cc(Cl)ccc1F (centres undefined)	-0.8%	x
31	CCc1ccc([C@@H]2CC=C(C(=O)O)[C@H](c3ccc(Cl)cc3)N2S(=O)(=O)c2ccc(C)cc2)cc1	-2.9%	x
32	CC(=O)Nc1ccc2[nH]c3ccccc3c2c1	1.8%	6

item	Rango release inh	miR-21 reporter
25	3%	0%
26	7%	-1%
27	0%	-2%
28	1%	-2%
29	0%	-23%
30	0%	0%
31	-5%	x
32	2%	-17%

Additional structures follow.
item	canonical_smiles	Rango-impB inh	GLA inh pH 4.5
33	CC[C@@]12C(=O)N(c3ccc(C)cc3)C(=O)N1[C@H](c1ccc(Br)cc1)[C@@H]1C(=O)N(C(C)(C)C)C(=O)[C@@H]12	0.2%	x
34	COc1cc(NC(=O)c2ccc(S(=O)(=O)N(C)C)cc2)cc(OC)c1OC	0.0%	-7
35	COc1ccc(-c2oc3ccccc3c2C#CC(C)(C)O)cc1	6.2%	x
36	CC1CC(C)CN(C(=O)COC(=O)c2ccc3c(c2)OCCO3)C1 (centres undefined)	-0.1%	x
37	Cc1cc(=O)oc2c3c(cc(OCC(=O)N4CCC(C(=O)O)CC4)c12)OC(C)(C)CC3	-2.8%	x
38	O=C(NCCO)/C(=C\c1cccs1)NC(=O)c1cccs1	-0.2%	-2
39	COc1ccc(S(=O)(=O)N2CCC(C(=O)NCCN3CCOCC3)CC2)cc1C	-0.4%	x
40	CN(C)C(CNC(=O)Cc1cccc(C(F)(F)F)c1)c1ccccc1 (centres undefined)	-2.2%	x

item	Rango release inh	miR-21 reporter
33	10%	11%
34	10%	1%
35	-5%	x
36	-4%	x
37	-7%	-1%
38	-2%	5%
39	-3%	-1%
40	-11%	-1%

Next structures follow:
item	canonical_smiles	Rango-impB inh	GLA inh pH 4.5
41	Cc1ccccc1Nc1nc(N)nc(CSCc2c(C)noc2C)n1	-4.3%	5
42	CCOC(=O)NN1C(=O)c2ccccc2NC1c1ccccc1F (centres undefined)	-0.3%	8
43	O=C(Cc1ccc(NC2=NC3CS(=O)(=O)CC3S2)cc1)N1CCN(c2ccc(F)cc2)CC1 (centres undefined)	-1.3%	x
44	COc1ccc(S(=O)(=O)N(C)CC(=O)Nc2ccccc2C(F)(F)F)cc1OC	1.4%	-5
45	CC1(C)Cc2c(sc3c2C2=NCCN2C=N3)CO1	u	4
46	CCCCCCCCCCOC(=O)c1csc2nnsc12	3.0%	-5
47	CC(C)OCCCNC(=O)CCSc1ccc(Cl)cc1	-6.5%	-12
48	CCOC(=O)C1CCN(Cc2oc(CO)cc(=O)c2O)CC1	-0.9%	0

item	Rango release inh	miR-21 reporter
41	-6%	-1%
42	3%	-3%
43	12%	-5%
44	-15%	-11%
45	-11%	-2%
46	13%	-6%
47	-4%	-3%
48	0%	-13%

Following part:
item	canonical_smiles	Rango-impB inh	GLA inh pH 4.5
49	O=C(Nc1cc(Br)ccc1O)C1CC(c2c(F)cccc2Cl)=NO1 (centres undefined)	0.7%	x
50	COC(c1ccccc1)c1nnc(CCC(=O)N2CCCCCCC2)o1 (centres undefined)	-4.4%	-1
51	O=C(CN1CCN(S(=O)(=O)c2ccccc2)CC1)Nc1ccc(Cl)cn1	-0.9%	x
52	CN(CC1COc2ccccc2O1)C(=O)c1cccc(S(=O)(=O)N2CCCC2)c1 (centres undefined)	0.7%	x
53	C#CCn1cc(/C=N/Nc2nc3ccccc3[nH]2)c2ccccc21	-0.3%	0
54	Cc1cc(C(=O)OCC(=O)Nc2ccc(S(=O)(=O)N3CCOCC3)cc2)c(C)o1	-5.2%	-11
55	O=C(NNC(=O)c1cccs1)c1csc(N2CCOCC2)n1	-2.4%	x
56	Cc1[nH][nH]c(=O)c1C(c1ccccc1[N+](=O)[O-])C(C#N)C#N (centres undefined)	-2.8%	-12

item	Rango release inh	miR-21 reporter
49	-3%	9%
50	-15%	-5%
51	2%	-3%
52	-4%	x
53	0%	9%
54	-13%	0%
55	12%	x
56	-18%	2%

Additional records:
item	canonical_smiles	Rango-impB inh	GLA inh pH 4.5
57	CN(c1ccccc1)S(=O)(=O)c1nnc(NC(=O)C2CCCCC2)s1	0.8%	x
58	COc1cccc(/C=C2\SC(=S)N(CCC(=O)Nc3ccc(O)cc3)C2=O)c1	-5.0%	x
59	COc1cccc(C(C(=O)NCC2CCCO2)N(C(=O)Cn2nnc3ccccc32)c2ccc(NC(C)=O)cc2)c1OC (centres undefined)	-3.8%	x
60	O=C(/C=C/c1ccc(Cl)cc1)N(Cc1cccs1)C1CCS(=O)(=O)C1 (centres undefined)	3.6%	-18
61	O=C(CCCN1C(=O)/C(=C/c2ccccc2OC(F)F)SC1=S)Nc1cccnc1	-0.4%	x
62	CCc1ccccc1NC(=O)C1C2C=CC(O2)C1C(=O)O (centres undefined)	1.4%	x
63	COC(=O)CCC(=O)N1CCCC(CNS(=O)(=O)c2ccc(OC)cc2)C1 (centres undefined)	1.9%	-3
64	CCCN1CCC(=O)N(CCOc2ccccc2)CC1	-2.7%	x

item	Rango release inh	miR-21 reporter
57	-10%	4%&17%
58	13%	-30%
59	9%	0%
60	-13%	1%
61	-4%	x
62	-3%	4%
63	4%	-2%
64	-6%	-17%

Continued:
item	canonical_smiles	Rango-impB inh	GLA inh pH 4.5
65	COc1ccc2cc(C3(C)NC(=O)NC3=O)ccc2c1 (centres undefined)	u	4
66	CCCN(Cc1ccccc1)C(=S)Nc1ccc(C(C)=O)cc1	-0.2%	4
67	C=CCNCC(=O)NN=C(c1ccccc1)c1ccccc1	0.7%	-7
68	S=C(c1ccccc1)N1CCN(C(=S)c2ccccc2)CC1	2.1%	2
69	CCN(CC)CCOC(=O)c1ccc(NC(=O)/C=C/c2cccs2)cc1	-0.5%	-12
70	O=c1cc(CSc2ccccc2)nc(-c2ccccc2)[nH]1	u	-1
71	CCOC(=O)c1cc(C(=O)c2cc(Br)ccc2O)coc1=N	-1.2%	4
72	Cc1c(Cl)cccc1NC(=O)Cn1cnc(S(=O)(=O)N2CCCC2)c1	-2.0%	x
73	CC(C)CCNC(=O)NC(=O)COC(=O)CNC(=O)C1CCCCC1	0.1%	-1

item	Rango release inh	miR-21 reporter
65	-14%	-4%
66	-4%	-3%
67	8%	-10%
68	23%	-1%
69	3%	-55%
70	0%	-21%
71	2%	-4%
72	22%	-2%&-2%
73	29%	-4%

Structures above that contain two or more sulfur atoms (eleven):
item	canonical_smiles	Rango-impB inh	GLA inh pH 4.5
21	Cc1cc(C)n2c(SCC(=O)N(C)C3CCS(=O)(=O)C3)nnc2n1 (centres undefined)	4.3%	1
23	O=S(=O)(Nc1ccc2c(c1)OCCO2)c1ccc(Br)s1	-1.8%	3
38	O=C(NCCO)/C(=C\c1cccs1)NC(=O)c1cccs1	-0.2%	-2
43	O=C(Cc1ccc(NC2=NC3CS(=O)(=O)CC3S2)cc1)N1CCN(c2ccc(F)cc2)CC1 (centres undefined)	-1.3%	x
46	CCCCCCCCCCOC(=O)c1csc2nnsc12	3.0%	-5
55	O=C(NNC(=O)c1cccs1)c1csc(N2CCOCC2)n1	-2.4%	x
57	CN(c1ccccc1)S(=O)(=O)c1nnc(NC(=O)C2CCCCC2)s1	0.8%	x
58	COc1cccc(/C=C2\SC(=S)N(CCC(=O)Nc3ccc(O)cc3)C2=O)c1	-5.0%	x
60	O=C(/C=C/c1ccc(Cl)cc1)N(Cc1cccs1)C1CCS(=O)(=O)C1 (centres undefined)	3.6%	-18
61	O=C(CCCN1C(=O)/C(=C/c2ccccc2OC(F)F)SC1=S)Nc1cccnc1	-0.4%	x

item	Rango release inh	miR-21 reporter
21	0%	-3%
23	4%	-3%
38	-2%	5%
43	12%	-5%
46	13%	-6%
55	12%	x
57	-10%	4%&17%
58	13%	-30%
60	-13%	1%
61	-4%	x

item	canonical_smiles	Rango-impB inh	GLA inh pH 4.5
68	S=C(c1ccccc1)N1CCN(C(=S)c2ccccc2)CC1	2.1%	2

item	Rango release inh	miR-21 reporter
68	23%	-1%

Screens deposited in PubChem BioAssay by National Center for Advancing Translational Sciences (NCATS).
